Assay outcomes deposited in PubChem BioAssay by National Center for Advancing Translational Sciences (NCATS).
VDR inhibitor – blocks the human vitamin D receptor; hit rate 0.93% among 400,000; AID 504847; P11473; VDR-SRC2-3 peptide fluorescence polarization, 2 h; Potency, µM, for inactives: max response, negative = inhibition, hits mostly inhibitors; active means well fitted inhibition curve with a large enough effect; further: series mostly up to about 120 µM
Target sequence (P11473 whole entry, looked up): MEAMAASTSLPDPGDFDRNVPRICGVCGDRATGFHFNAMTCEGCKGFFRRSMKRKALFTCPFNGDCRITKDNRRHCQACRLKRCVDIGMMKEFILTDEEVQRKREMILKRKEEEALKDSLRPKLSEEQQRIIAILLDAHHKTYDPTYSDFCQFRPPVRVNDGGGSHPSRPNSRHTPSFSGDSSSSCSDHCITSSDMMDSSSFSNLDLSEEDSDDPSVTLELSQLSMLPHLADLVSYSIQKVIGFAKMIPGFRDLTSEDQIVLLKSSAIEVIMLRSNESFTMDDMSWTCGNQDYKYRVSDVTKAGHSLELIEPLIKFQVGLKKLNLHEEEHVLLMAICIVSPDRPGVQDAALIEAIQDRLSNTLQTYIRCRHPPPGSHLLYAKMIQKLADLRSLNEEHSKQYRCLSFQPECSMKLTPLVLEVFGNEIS
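Fluorescence polarization assay of small-molecule disruption of VDR binding to coregulator peptide SRC2-3. Compounds and controls pin-transferred, then read after 2 h incubation at ambient room temperature.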
Numbers without * were called inactive; & = joins results of further samples; [ ] = dose if it differs, or a comment. On the % scale 0 is the no-effect control and ±100 the full control effect; potency means the concentration at half of the fitted maximal effect. Only part of the results is shown. The share of hits here may be higher or lower than overall.

VDR inhibitor	Compound
-19%	COCCSc1ccccc1C(=O)NCCCn1ccnc1
-1%	Cc1ccc2oc(C(=O)N(C)Cc3cnccn3)c(C)c2c1
14%	COc1ccc(S(=O)(=O)NCCCN2CCCC2=O)c(OC)c1
-14%	CN(C(=O)N1CCN(c2ccccn2)CC1)c1ccccc1
19%	CC(C)CCOc1cccc(OCC(=O)O)c1
5%	COc1ccc(OCC(O)CN(C)C(=O)C(C)Oc2ccccc2)cc1 (configuration not stated)
-15%	Cc1ccccc1NC(=O)CSc1nnc(C2CC2)n1CC1CCCO1 (configuration not stated)
7%	Cc1[nH]c2ccccc2c1-c1nc2ccccc2[nH]c1=O
-13%	Cc1ccc2c(c1)NCC(C(=O)NC1CCC(C)CC1)O2 (configuration not stated)
-4%	C=CCOc1ccc(/C=C(\C#N)C(=O)Nc2ccccn2)cc1OC
3%	COC(=O)C1=C(C)NC(=O)NC1c1cn(-c2ccccc2)nc1-c1cccs1 (configuration not stated)
-11%	CCC(C)(C)C1CCC2(CC1)NC(CO)(CO)CO2 (configuration not stated)
19%	O=C(NCCCc1nc2ccccc2n1Cc1ccccc1Cl)C1CCCCC1
10%	Cc1ccc(Nc2nc(C(=O)N3CCC(C(=O)N4CCN(C)CC4)CC3)cs2)cc1
-13%	CN(C1CCCCC1)S(=O)(=O)c1ccc2c(c1)c(=O)c(C(=O)NCc1ccccc1Cl)cn2C

An excerpt of the results above, for reference:
VDR inhibitor	Compound
-13%	Cc1ccc2c(c1)NCC(C(=O)NC1CCC(C)CC1)O2 (configuration not stated)
-4%	C=CCOc1ccc(/C=C(\C#N)C(=O)Nc2ccccn2)cc1OC
3%	COC(=O)C1=C(C)NC(=O)NC1c1cn(-c2ccccc2)nc1-c1cccs1 (configuration not stated)
-11%	CCC(C)(C)C1CCC2(CC1)NC(CO)(CO)CO2 (configuration not stated)
19%	O=C(NCCCc1nc2ccccc2n1Cc1ccccc1Cl)C1CCCCC1

A second format for 2 compounds above.
Cc1ccc2c(c1)NCC(C(=O)NC1CCC(C)CC1)O2 (configuration not stated)
  VDR inhibitor = -13%
COCCSc1ccccc1C(=O)NCCCn1ccnc1
  VDR inhibitor = -19%

(next part)
VDR inhibitor	Compound
5%	Cc1ccc2c(=O)cc(C(=O)NCCc3ccc(S(N)(=O)=O)cc3)oc2c1
5%	O=C(Nc1ccc(N2CCOCC2)nc1)c1ccccc1Cl
-2%	CC(C)OCCCNc1ncnc2c1cnn2-c1ccccc1
-28%	Cc1cccn2c(=O)c(/C=C(\C#N)S(=O)(=O)c3ccccc3)c(Oc3ccc(Cl)cc3)nc12
-3%	COCCNC(=O)C1(S(=O)(=O)c2ccccc2)CC=CC1
-3%	COc1ccc(-n2c(C)cc(C(=O)COC(=O)c3cc(OC)c(OC)cc3NC(=O)c3cccs3)c2C)cc1
-8%	O=C(CS(=O)(=O)c1cn(CC(=O)N2CCOCC2)c2ccccc12)Nc1ccccc1
-10%	Cn1cc(CN(CCCN2CCOCC2)C(=S)Nc2cccc(Cl)c2)c2ccccc21
2%	CCC(C)[C@H](NC(=O)Nc1ccc2c(c1)OCCO2)C(=O)OC (some centres not stated)
-5%	COc1cc(NC(=O)c2sc(C)nc2C)c(OC)cc1NC(=O)c1ccccc1
3%	Cc1cc(C)nc(N2CCCC(C(=O)Nc3ccc4c(c3)OCCO4)C2)n1 (configuration not stated)
6%	OCCC1CN(Cc2ccc(Oc3ncccn3)cc2)CCN1C1CCCCC1 (configuration not stated)
8%	COc1ccc(CCC(=O)NC2CCCc3ccccc32)cc1OC (configuration not stated)
-3%	O=C1CCCc2oc3ccc(O)cc3c21
23%	O=C(NN=C1CCCC1)C(=O)Nc1cccc(C(F)(F)F)c1

5 of the entries above in order of their number in VDR inhibitor, lowest first.
SMILES | VDR inhibitor
Cc1ccc2c(c1)NCC(C(=O)NC1CCC(C)CC1)O2 (configuration not stated) | -13%
CCC(C)(C)C1CCC2(CC1)NC(CO)(CO)CO2 (configuration not stated) | -11%
COC(=O)C1=C(C)NC(=O)NC1c1cn(-c2ccccc2)nc1-c1cccs1 (configuration not stated) | 3%
OCCC1CN(Cc2ccc(Oc3ncccn3)cc2)CCN1C1CCCCC1 (configuration not stated) | 6%
Cc1[nH]c2ccccc2c1-c1nc2ccccc2[nH]c1=O | 7%

The list continues:
VDR inhibitor	Compound
10%	CN(C)Cc1ccccc1Sc1cccc2ccccc12
-7%	COc1ccccc1NC(=O)c1ccc(NS(=O)(=O)c2ccc(F)c(Cl)c2)cc1
-16%	CCc1noc(C)c1C(=O)Nc1cc(S(=O)(=O)N2CCOCC2)ccc1N1CCN(CC)CC1
-1%	CC1CC1C(=O)Nc1cc(C(F)(F)F)ccc1N1CCOCC1 (configuration not stated)
15%	CCOc1ccccc1NC(=O)Nc1ccc2c(c1)OCO2
-1%	Cc1cccc(N(C(=O)c2snc(C(N)=O)c2N)C(C(=O)NC2CCCC2)c2ccncc2)c1 (configuration not stated)
-9%	CN(Cc1ccco1)C(=O)c1ccc(S(=O)(=O)N2CCCCCC2)cc1
1%	COc1cc([N+](=O)[O-])ccc1NC(=O)NCc1cccnc1
9%	COc1ccc(C)cc1-n1nnnc1SCC(=O)c1ccc2c(c1)OCCO2
-11%	CCCOc1ccc(C(=O)Nc2ccc3oc(-c4ccc(N(C)C)cc4)nc3c2)cc1
-10%	CCc1c(C)sc2nc3c(C(=O)N4CCOCC4)cc(C(=O)c4cc(F)ccc4O)cn3c(=O)c12
7%	COc1ccc(NC(=O)CCN(c2ccc(OC)cc2)S(=O)(=O)c2ccc(C)c(C)c2)cc1
6%	CCOc1ccccc1NC(=O)Cn1nnc(C(=O)NCc2ccc3c(c2)OCO3)c1N
-13%	CCOc1cc(/C=N/NC(N)=O)cc(Br)c1OCc1ccccc1
-10%	Cc1ccccc1Oc1cc(NC(=O)CCCn2nc(C)c([N+](=O)[O-])c2C)cc([N+](=O)[O-])c1

(cont.)
VDR inhibitor	Compound
60%&-1%[activator]	COC(=O)c1ccc(Cn2nc(-c3ccc(C)cc3)ccc2=O)cc1
-5%	Cc1ccc(C(=O)NC(=S)Nc2ccc3c(c2)OCCO3)c(C)c1
0%	COc1ccc(-n2nc(C(=O)NCC(=O)N3CCCC(C)C3)c3ccccc3c2=O)cc1 (configuration not stated)
-9%	CC(C)NC(=O)Cn1c(SCC(=O)N2CCCc3ccccc32)nc2ccccc21
-13%	CCc1ccc(NC(=O)c2ccc(F)c(S(=O)(=O)N(C)C3CCCCC3)c2)cc1
8%	CCOc1ccccc1NC(=O)c1sc2nc(C)cc(C)c2c1N
2%	Cc1nnc(N(Cc2ccco2)C(=O)c2cccc(C#N)c2)s1
0%	O=C(CSc1nnc(C2CC2)n1C1CC1)c1ccccc1F
6%	C=CCOC(=O)CCCCCCCC
-5%	COC(=O)c1ccc(OCc2nc(N)nc(N3CCOCC3)n2)cc1
-3%	Cn1cc(-c2nc3cnc(Oc4ccccc4)nc3n(Cc3cccs3)c2=O)c2ccccc21
4%	CCCC12CN3CC(CCC)(CN(C1)C3c1ccccc1)C2=O (configuration not stated)
-11%	CCc1ccccc1NC(=O)CC1CS(=O)(=O)CC1CC(=O)Nc1ccccc1CC (configuration not stated)
1%	Cc1cccc(CCN2C(Nc3ccccc3)=NC[C@@H]2C)c1
-1%	COc1ccc(Br)cc1C(=O)Nc1ccc(O)cc1

More compounds:
VDR inhibitor	Compound
-2%	COc1ccc(C(CNC(=O)CNC(=O)c2cc(OC)c(OC)c(OC)c2)N2CCOCC2)cc1 (configuration not stated)
-14%	Cc1cc(C)c(S(C)(=O)=O)c(Oc2ccc(C(C)(C)C)cc2)n1
-3%	COc1ccc(CNC(=O)C2CC(=O)N(C3CCCCC3)C2)cc1 (configuration not stated)
-20%	CCOc1ccc(C(=O)Nc2ccc(Cl)c(-c3nc4cc(C)cc(C)c4o3)c2)cc1
-6%	CC[C@]12c3[nH]c4ccc(Cl)cc4c3CCN1C(=O)[C@@H](CC(=O)NCC13CC4CC(CC(C4)C1)C3)C[C@@H]2C(=O)N1CCN(C(=O)C2CC2)CC1
32µM*	Nc1nc(Sc2c([N+](=O)[O-])cc(C(F)(F)F)cc2[N+](=O)[O-])n[nH]1
-18%	Cc1[nH][nH]c(=O)c1C=NCc1cccc(C(F)(F)F)c1
7%	Cc1cc(C)cc(NC(=S)Nc2cccc3ccccc23)c1
3%	Cc1ccccc1NS(=O)(=O)c1ccc(C(=O)NCC2CCCO2)cc1 (configuration not stated)
12%	NC(=O)NC(c1ccccc1)c1ccccc1F (configuration not stated)
1%	O=c1nc2ccccn2c2ccc(S(=O)(=O)N3CCCCC3)cc12
1%	COC(=O)c1oc2nc(C)cc(C)c2c1N
-2%	COc1ccccc1-c1cccc([C@@H]2C[C@H]3[C@H](CON3C)CN2C)c1
14%	CC(C)OCCCNC(=O)c1cn(C)c2ccc(S(=O)(=O)N3CCCC3)cc2c1=O
-13%	N#Cc1c(N2C(=O)Nc3ccccc3N2O)sc2c1CCCC2

(next part)
VDR inhibitor	Compound
-4%	O=C(c1cccc(S(=O)(=O)N2CCOCC2)c1)N1CCN(c2ccc(F)cc2)CC1
-28%	COc1cccc(/C=C/C(=O)OCC(=O)Nc2ccc(Cl)c(S(=O)(=O)N(C)C)c2)c1OC
13%	Cn1c(=O)cc(OCC(=O)NC2CCCCC2)c2ccccc21
-17%	COc1ccc(-c2cc3nc(C)c(CCC(=O)N4CCN(c5ccccn5)CC4)c(C)n3n2)c(OC)c1
-13%	O=C(COC(=O)CCCN=C1NS(=O)(=O)c2ccccc21)NNC(=O)c1ccccc1
-12%	CCC(Sc1nc2ccncc2[nH]1)C(=O)Nc1ccc(C)c(Cl)c1 (configuration not stated)
10%	CC(=O)Nc1nc(C)c(-c2nc3ccc([N+](=O)[O-])cc3[nH]2)s1
1%	O=C(COc1ccc(Cl)cc1)Nc1ccc2oc(=O)ccc2c1
-1%	CCC(Cc1ccccc1)NC(=O)CN1C(=O)CSc2ncccc21 (configuration not stated)
6%	CC1(c2ccccc2)NC(=O)N(CC(=O)NC(=O)NC2CCCC2)C1=O (configuration not stated)
-17%	CCOc1ccc(CNC(=O)c2ccc(NC(=O)C3=CSCCO3)cc2)cc1
2%	CC(C)(C)OC(=O)N1CCC(c2c(C(=O)N3CCN(C(=O)c4ccco4)CC3)cnn2-c2ccccc2)CC1
-12%	COc1ccccc1N(C)S(=O)(=O)c1ccc(C(=O)NC(C)(C)C)cc1
10%	COc1ccc(CCNc2ncnc3c2cnn3-c2cc(Cl)ccc2C)cc1
-2%	COc1ccc(C(C)=O)cc1Cn1nc(C)c([N+](=O)[O-])c1C

Reformatted: results already given
SMILES | VDR inhibitor
Cc1ccc(Nc2nc(C(=O)N3CCC(C(=O)N4CCN(C)CC4)CC3)cs2)cc1 | 10%
CN(C1CCCCC1)S(=O)(=O)c1ccc2c(c1)c(=O)c(C(=O)NCc1ccccc1Cl)cn2C | -13%

(cont.)
VDR inhibitor	Compound
-2%	Cc1c(N=Nc2ccc(O)cc2)c(=O)n(-c2ccccc2)n1C
6%	CC(C)Cn1c(N)c(C(=O)COC(=O)CCc2nc3ccccc3s2)c(=O)n(C)c1=O
25%	O=C(c1cccc(Cl)c1)N1CCC(N2CCC(C(=O)N3CCCC3)CC2)CC1
6%	CCSc1ncc(Cl)c(C(=O)N(Cc2ccc(N(C)C)cc2)Cc2ccco2)n1
-1%	CCN(CC)S(=O)(=O)c1cc(OC)c(C)cc1C
10%	COc1cc(C(=O)NCCc2ccc(S(N)(=O)=O)cc2)cc(OC)c1OC
-1%	Cc1cc(O)ccc1NC(=O)c1ccccc1
4%	CSc1nc(NCc2ccco2)c2ccccc2n1
12%	COc1ccc(NCC(=O)N/N=C/C2CCCCC2)cc1
4%	CCCCNS(=O)(=O)c1ccc(OC)c(Cl)c1Cl
-22%	CC(C)(C)NC(=O)C(c1ccncc1)N(C(=O)C1CSC(=O)C1)c1ccccc1 (configuration not stated)
9%	CC(C)(C)NC(=O)c1oc2ccccc2c1COc1ccccc1
10%	C=CCNC(=S)N1CCN(CCN=Cc2c(C)[nH]n(-c3ccc([N+](=O)[O-])cc3)c2=O)CC1
2%	COc1cccc(CNC(=O)C2CCN(S(=O)(=O)c3ccc(C)cc3)CC2)c1
-5%	Cc1cccc(N(C(=O)c2ccc(CN3CCOCC3)o2)C(C(=O)NC2CCCCC2)c2ccc(F)cc2)c1 (configuration not stated)

Continued.
VDR inhibitor	Compound
13%	O=C(CNS(=O)(=O)c1cccc(Br)c1)NCC1CCCCC1
5%	COc1ccc(N(CC(=O)N2CCN(C)CC2)S(=O)(=O)c2ccccc2)cc1OC
-8%	CC1(C)COC2(OC1)C(=O)Nc1ccccc12
-17%	COc1ccc(/C=N/NC(=O)c2cccnc2)cc1CN1CCc2cc(OC)c(OC)cc2C1C (configuration not stated)
-3%	CN(c1c[nH]c(=O)[nH]c1=O)C1CCCCC1
-5%	Cc1cc(-c2nnc(CCC(=O)N(CC3CC3)CC3CCCO3)o2)no1 (configuration not stated)
10%	Nc1nonc1-c1nc2ccccc2n1CC(=O)N/N=C/c1ccc(-c2cccc(C(=O)O)c2)o1
-1%	CCN1C(C(=O)c2ccccc2)=C(OC(=O)c2ccc(Cl)cc2)c2ccccc2S1(=O)=O
2%	COc1ccc2cc(-c3ccon3)ccc2c1
-3%	O=C(Nc1cccc2c1CCCC2)C1CCN(c2nnnn2-c2ccccc2)CC1
-5%	CCOC(=O)C(C)n1cnc2c(nnn2-c2cccc(Cl)c2)c1=O (configuration not stated)
-24%	CC(C=NNC(=O)C(=O)NN=CC(C)=Cc1ccccc1)=Cc1ccccc1
17%	Nc1ccc2nc(CCCO)[nH]c2c1
-27%	CC(C)(C)c1ccc(S(=O)(=O)NCc2ccccn2)cc1
